Assay outcomes from PubChem BioAssay.
GIRK2 activ = activators of human GIRK2 potassium channels; actives 0.05% (n = 63,000); HEK293-GIRK2 thallium flux, Thallos fluorescence; P48051; calls only for hits at 25 µM;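 active = among the strongest 0.2% of first-round signals and kept after retests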;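 note: first round at about 10 µM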
Target sequence (P48051 whole entry, looked up): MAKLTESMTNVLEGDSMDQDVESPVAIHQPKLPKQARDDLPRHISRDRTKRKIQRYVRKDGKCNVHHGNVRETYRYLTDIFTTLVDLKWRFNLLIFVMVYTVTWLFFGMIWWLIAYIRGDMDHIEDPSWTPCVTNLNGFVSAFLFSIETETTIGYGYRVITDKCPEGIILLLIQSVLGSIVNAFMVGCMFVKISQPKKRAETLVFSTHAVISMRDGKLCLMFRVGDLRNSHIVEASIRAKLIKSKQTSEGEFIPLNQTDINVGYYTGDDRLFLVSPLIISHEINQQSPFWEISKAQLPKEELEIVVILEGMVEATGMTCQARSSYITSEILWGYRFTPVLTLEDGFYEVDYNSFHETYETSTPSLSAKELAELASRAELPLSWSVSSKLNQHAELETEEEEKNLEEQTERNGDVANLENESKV
Calls only; i = inactive.

| GIRK2 activ | structure |
| --- | --- |
| i | CONC(=O)C1CCCN(Cc2nc(-c3cccs3)no2)C1 (centres undefined) |
| i | Cc1c(CNS(=O)(=O)CCOc2ccccc2)sc2nc(-c3ccc(F)cc3)cn12 |
| i | Cc1cccc(NC(=O)CN2CCC(c3nn(C)c(=O)n3-c3ccccc3)CC2)c1C |
| i | CC(C)NC(=O)c1cc(=O)c(OCc2ccccc2)co1 |
| i | O=C(NCC#CCOc1cccc(C(F)(F)F)c1)c1ccccn1 |
| i | O=C(O)c1ccccc1OP(=O)(O)O |
| i | COC(=O)Cn1c(=O)c2c(nc3n(-c4cccc(OC)c4)c(C)c(C)n23)n(C)c1=O |
| i | CCOC(=O)c1ccc(NC(=O)Cn2ccn(Cc3ccc(Cl)cc3)c(=O)c2=O)cc1 |
| i | O=C(NCc1ccc(F)cc1)Nc1ccc2c(c1)N(S(=O)(=O)c1cccs1)CCC2 |
| i | COc1cc(/C=C/c2ccncc2)ccc1OC(=O)c1ccc(S(=O)(=O)N(C)C)cc1 |
| i | CCOc1ccc(-n2c(=S)sc3c(=O)[nH]c(SCC(=O)Nc4cc(C)ccc4C)nc32)cc1 |
| i | COC(=O)c1ccc(CN2CC(c3nc(Cc4ccccc4)no3)C2)cc1 |
| i | N#C/C(=C\c1cccc(Br)c1)c1nc2ccccc2s1 |
| i | CCOc1ccc(-c2ccc(=O)n(CCNS(=O)(=O)c3ccc(OC)c(F)c3)n2)cc1 |
| i | Cc1cc(C(=O)OCC(=O)c2cccc([N+](=O)[O-])c2)c2ccccc2n1 |
| i | Cc1cc(SCC(=O)Nc2cc(Cl)ccc2Cl)nc(-c2cccnc2)n1 |
| i | O=C(NCc1ccc(F)cc1)NCC1CCN(S(=O)(=O)c2cccnc2)CC1 |
| i | CC1(C)OCC2(CO1)CN(C(=O)c1cncc(Br)c1)C2 |
| i | Cc1cc(NC(=O)Cn2c(C)cc(C)c(C#N)c2=O)n[nH]1 |
| i | COc1ccc2[nH]c3c(c(=O)c2c1)CN(CC(=O)Nc1ccc(OC)c(Cl)c1)CC3 |

Given with bars between the fields: 4 of the compounds above
Compound | GIRK2 activ
Cc1cc(C(=O)OCC(=O)c2cccc([N+](=O)[O-])c2)c2ccccc2n1 | i
Cc1cc(SCC(=O)Nc2cc(Cl)ccc2Cl)nc(-c2cccnc2)n1 | i
N#C/C(=C\c1cccc(Br)c1)c1nc2ccccc2s1 | i
Cc1cc(NC(=O)Cn2c(C)cc(C)c(C#N)c2=O)n[nH]1 | i

Continued.
| GIRK2 activ | structure |
| --- | --- |
| i | O=C(NCc1cc(-c2ccncc2)n(C2CCCC2)n1)C1(c2cccs2)CCCC1 |
| i | CCOC(=O)COC(=O)c1cn(-c2ccc(OCC)cc2)c(=O)c2ccccc12 |
| i | CC(C)Oc1ccc2c(=O)c(-c3ccccc3F)coc2c1 |
| i | Cc1cc(C)n(-c2nc3c(c(=O)n(CCN4CCOCC4)c(=O)n3C)n2CCC(C)C)n1 |
| i | COCCSc1nc(-c2ccc(OC)c(OC)c2)cc(C(F)(F)F)c1C#N |
| i | COc1ccccc1OCC#CCNC(=O)c1cc(-c2ccccc2)nn1C |
| i | COc1ccc2c(c1)C=C(C(=O)NC1CCCC1)C=CO2 |
| i | O=C(CCc1ccccc1)NCC(O)c1cccc2ccccc12 (centres undefined) |
| i | CCCCCCCCCCCCCCCC(=O)C(F)(F)F |
| i | Cc1cc(C(=O)Nc2nc3c(s2)CN(S(=O)(=O)c2ccc(Cl)s2)CC3)no1 |
| i | Cc1cc(S(=O)(=O)N2CCCCC2CCNC(=O)C(=O)NCCN2CCOCC2)ccc1F (centres undefined) |
| i | CC(Oc1ccccc1)C(=O)NCCNc1ccc(Nc2cccnc2)nn1 (centres undefined) |
| i | CC(=O)Nc1cnc(N2CCN(c3ccccn3)CC2)nc1 |
| i | CCc1cnc2c(c1SCC(=O)Nc1c(C)cc(C)cc1C)c(=O)n(C)c(=O)n2C |
| i | C=CCN1C(=O)/C(=c2\sc3nc(=O)c(Cc4ccccc4)nn3c2=O)c2ccccc21 |
| i | CCC1=C(C(=O)OC)C(c2cccc(OC)c2OC)n2ncnc2N1 (centres undefined) |
| i | C=CC(C)(C)OCC(O)CN1CCN(CCN2C(=O)c3cccc4cccc(c34)C2=O)CC1 (centres undefined) |
| i | Cc1cc(C)c(NC(=O)Cn2c(=O)n(Cc3cccs3)c(=O)c3ncccc32)c(C)c1 |
| i | CC(C)Sc1ccc(CC(=O)Nc2ccc(-n3nnn(C)c3=O)cc2)cc1 |
| i | O=C(Cc1noc2ccccc12)Nc1nc2c(s1)COCC2 |
| i | CCOc1ccccc1-n1c(C)cn2c3c(=O)n(CC(N)=O)c(=O)n(C)c3nc12 |
| i | O=C(NCCc1ccoc1)C(=O)Nc1ccc(F)cc1F |
| i | Cc1cccc(N2CCn3c2nc2c3c(=O)n(C)c(=O)n2C)c1 |
| i | COC(=O)c1ccc(C2Oc3ccccc3C3=C2C(c2cccnc2)n2nnnc2N3)cc1 (centres undefined) |
| i | O=C(c1cc2ccccc2o1)N1CCN(Cc2nc(-c3ccc(F)cc3)cs2)CC1 |
| i | COc1ccc(CNC(=O)NCc2ccsc2)cc1 |
| i | O=C1C[C@@H](c2ccc(O)cc2)Oc2cc(O)c([C@@H]3O[C@H](CO)[C@@H](O)[C@H](O)[C@H]3O)c(O)c21 |
| i | COC(=O)C1CCN(C(=O)c2cccnc2-c2nc3ccccc3s2)CC1 |
| i | O=C(c1ccc(F)c(F)c1)N1CCOCC1CO (centres undefined) |
| i | COCCn1c(C(=O)NC(C)CCc2ccccc2)cc2c(=O)n(C)c(=O)n(C)c21 (centres undefined) |
| i | CC(C)NC(=O)N1CCCC(c2nnc(Cc3ccc(F)cc3)o2)C1 (centres undefined) |
| i | Cc1csc(SCC2CCN(S(=O)(=O)Cc3ccccc3)CC2)n1 |
| i | COc1ccc(-n2c(C)nc3ccc(NC(=O)Cc4cccs4)cc3c2=O)cc1 |
| i | O=C(NC1CCSC1=O)c1ccc(-n2cccn2)nn1 (centres undefined) |
| i | Cc1ccccc1-c1noc(Cn2c(=O)n(Cc3ccco3)c(=O)c3ccccc32)n1 |
| i | Cn1c(-c2ccccc2)c[nH]c1=S |
| i | CCCn1c(C(=O)N2CCN(c3cccc(Cl)c3)CC2)cc2c(=O)n(C)c(=O)n(C)c21 |
| i | CCOc1ccc(NC(=O)c2ccc(Oc3nccnc3N3CCC(C)CC3)cc2)cc1 |
| i | O=C(C1CCC(Cn2c(=O)c3sccc3n(Cc3cccc(F)c3)c2=O)CC1)N1CCOCC1 (centres undefined) |
| i | Cc1noc(C2(NC(=O)c3ccoc3)CCCCC2)n1 |
| i | Cn1nnnc1SCC(=O)N1CC(c2nc(-c3ccco3)no2)C1 |
| i | CC(=O)CC1(O)C(=O)N(Cc2ccccc2OC(C)C)c2c(C)cccc21 (centres undefined) |
| i | O=C(NCC1CCN(c2ccccn2)CC1)c1cccc2ccccc12 |
| i | COC(=O)c1sccc1S(=O)(=O)N1CCc2nc(NC(=O)C3CC3)sc2C1 |
| i | COc1ccc(CNC(=O)N(CCc2cccs2)Cc2ccoc2)cc1 |
| i | CCOC(=O)CCC(=O)N1CC(c2nc(-c3ncccn3)no2)C1 |
| i | COc1ccc(NC(=O)Nc2ccc3c(c2)CCCN3C(=O)C(C)C)cc1OC |
| i | N#CCn1cccc1-c1nc(-c2ccc(OC(F)(F)F)cc2)no1 |
| i | O=C(/C=C/c1ccco1)Nc1cnc(N2CCN(c3ccccc3)CC2)nc1 |
| i | CCc1noc(-c2ccc(-n3ncc(C(=O)NCc4ccc(Cl)cc4)c3C)nc2)n1 |

Continuation.
| GIRK2 activ | structure |
| --- | --- |
| i | CC(C)COC(=O)C(C#N)c1nc2ccccc2nc1N1CCN(Cc2ccccc2)CC1 (centres undefined) |
| i | C/C=C/Cn1c(=O)c2c(nc3n2CC(C(C)(C)C)=NN3CC(N)=O)n(C)c1=O |
| i | CN(CC(=O)Nc1ccc2cn[nH]c2c1)c1nc2c(C(F)(F)F)cccc2s1 |
| i | O=S(=O)(Cc1ccccc1Cl)N1CCC2(CC1)OCCCO2 |
| i | Cc1ccccc1C1=C(c2cn(C)c3ccccc23)C(=O)NC1=O |
| i | O=C(NCc1cccs1)C(=O)Nc1ccc(C(F)(F)F)cc1 |
| i | COc1ccc(S(=O)(=O)N2CCCc3cc(NC(=O)c4cccc(OC)c4)ccc32)cc1 |
| i | CCOC(=O)c1ccc(NC(=O)Cn2nc3c4cccc(C)c4ncn3c2=O)cc1 |
| i | CC(C)(C)OCC(O)CN1CCN(c2ccccc2)CC1 (centres undefined) |
| i | O=C(Nc1cccc(C(F)(F)F)c1)c1ccc(N2C(=O)c3ccccc3C2=O)cc1 |
| i | COc1ccc(C2(CNC(=O)C3CCCCC3)CCOCC2)cc1 |
| i | O=C(NCc1cccs1)Nc1ccccc1NC(=O)c1ccccc1C(F)(F)F |
| i | O=C(NCCn1ncccc1=O)c1ccc(OCC(=O)C2CC2)cc1 |
| i | Cc1cc(C(O)CCNC(=O)Cc2ccccc2Cl)c(C)o1 (centres undefined) |
| i | N#Cc1c(C(F)(F)F)cc(-c2cccs2)nc1SCC(=O)NC1CCCCC1 |
| i | Cc1noc(C)c1CC(=O)Nc1nc(-c2cccnc2)cs1 |
| i | O=C(CCc1csc2nc(C3CC3)cn12)NCc1nc(-c2ccccc2)no1 |
| i | CN(C)S(=O)(=O)N1CCc2nc(NC(=O)c3cccs3)sc2C1 |
| i | CCc1nc2sc(C(c3ccc(Cl)cc3Cl)N3CCCC3)c(O)n2n1 (centres undefined) |
| i | CCC(=O)Nc1c(-c2ccccn2)nsc1C(=O)NCC(C)c1ccccc1 (centres undefined) |
| i | CCOCCn1c(=O)c2c(nc3n(-c4ccc(C(=O)OCC)cc4)c(C)c(C)n23)n(C)c1=O |
| i | CCC(C(=O)Nc1cccc2nc(C)ccc12)c1ccccc1 (centres undefined) |
| i | Cc1nc(C(=O)N2CC3(COC(C)(C)OC3)C2)cs1 |
| i | Cc1c(C(=O)N2CCCC(c3nnc(-c4ccccc4F)s3)C2)cnn1-c1ccccc1 (centres undefined) |
| i | CC(=O)c1cccc(NC(=O)c2nnn(-c3ccc(Cl)cc3)n2)c1 |
| i | O=C(NCC(O)c1ccc2c(c1)CCO2)c1ccco1 (centres undefined) |
| i | O=c1c2ccc(Cl)cc2nc2sc(Nc3ccc(F)cc3F)nn12 |
| i | CC(=O)N1CCc2c(sc(NC(=O)c3cccc4ccccc34)c2-c2nc3ccccc3s2)C1 |
| i | CSc1cccc(NC(=O)C(=O)NCCC(O)C2CC2)c1 (centres undefined) |
| i | Cc1csc(-c2nnc(NC(=O)C3(c4ccccc4)CCOCC3)o2)c1 |
| i | CCOc1ccc(/C=C/C(=O)Nc2ccccc2C)cc1OC |
| i | COc1ccc(CCNC(=O)Cn2c(C)cc(C)c(-c3nc(-c4ccccc4)no3)c2=O)cc1OC |
| i | O=C(c1ccsc1)N1CCCC(c2nnc(C(F)(F)F)o2)C1 (centres undefined) |
| i | COc1cc(C2=NN(C(C)=O)C(c3ccc(C(=O)O)cc3)C2)cc(OC)c1OC (centres undefined) |
| i | CC(C)(C)n1c(=O)c2ccccc2n1CC(=O)N1CCN(c2ccc(F)cc2)CC1 |
| i | CC(C)(Oc1ccc(Cl)cc1)C(=O)NCC1CCN(C(=O)Oc2ccccc2)CC1 |
| i | O=S(=O)(NCC1CCCO1)c1ccc(-c2ccc(Cl)cc2)cc1 (centres undefined) |
| i | CCC(=O)Nc1ccc2c(c1)CC(=O)N2 |
| i | Cc1nc(-c2cccc(NC(=O)C3CCC(CNS(C)(=O)=O)CC3)c2)cs1 (centres undefined) |
| i | O=C(Nc1ccccc1)OCCNC(=O)c1cccnc1 |

Grouped by structure, those above containing an aryl thioether with sulfur outside any ring
| GIRK2 activ | structure |
| --- | --- |
| i | CCOc1ccc(-n2c(=S)sc3c(=O)[nH]c(SCC(=O)Nc4cc(C)ccc4C)nc32)cc1 |
| i | Cc1cc(SCC(=O)Nc2cc(Cl)ccc2Cl)nc(-c2cccnc2)n1 |
| i | COCCSc1nc(-c2ccc(OC)c(OC)c2)cc(C(F)(F)F)c1C#N |
| i | CCc1cnc2c(c1SCC(=O)Nc1c(C)cc(C)cc1C)c(=O)n(C)c(=O)n2C |
| i | CC(C)Sc1ccc(CC(=O)Nc2ccc(-n3nnn(C)c3=O)cc2)cc1 |
| i | Cc1csc(SCC2CCN(S(=O)(=O)Cc3ccccc3)CC2)n1 |
| i | Cn1nnnc1SCC(=O)N1CC(c2nc(-c3ccco3)no2)C1 |
| i | N#Cc1c(C(F)(F)F)cc(-c2cccs2)nc1SCC(=O)NC1CCCCC1 |
| i | CSc1cccc(NC(=O)C(=O)NCCC(O)C2CC2)c1 (centres undefined) |

Going on with the list.
| GIRK2 activ | structure |
| --- | --- |
| i | CC1Cc2ccccc2N1C(=O)CSc1nnc(CCc2nc3ccccc3s2)o1 (centres undefined) |
| i | O=C(c1cnccn1)N1CCC(COCc2ccccc2)CC1 |
| i | Cc1cc(C)n(-c2nc(CCNC(=O)NCc3cccs3)cs2)n1 |
| i | Cc1c(C)c(C)c(S(=O)(=O)NCC(C)(O)c2ccco2)c(C)c1C (centres undefined) |
| i | Cc1ccc(N2CCCC(C(=O)Nc3cccc(C)c3C)C2)nn1 (centres undefined) |
| i | CCOC(=O)c1c(-c2ccc(OC)cc2)oc2ccc(OCC(N)=O)cc12 |
| i | COc1ccc(Cl)cc1NC(=O)Nc1nnc(-c2cc(C)oc2C)o1 |
| i | COc1cc(C(C)=O)ccc1OCC(=O)Nc1cc(N2CCN(C)CC2)ncn1 |
| i | Cc1ccc(-n2nnnc2CN2CCN(C(=O)c3ccc(F)c(F)c3)CC2)cc1 |
| i | COC(=O)c1cccc(NC(=O)Cn2nc3ccc(-c4ccccc4)nn3c2=O)c1 |
| i | CSc1cccc(NC(=O)C(=O)NCC(O)c2ccoc2)c1 (centres undefined) |
| i | Cc1ccc(-c2noc(-c3cccnc3SCC(=O)Nc3ccc4c(c3)OCO4)n2)cc1 |
| i | COc1cccc2sc(OC3CN(C(=O)C4=COCCO4)C3)nc12 |
| i | COc1ccc(OC)c(S(=O)(=O)N2CCN(c3cc(OC)nc(OC)n3)CC2)c1 |
| i | CCCC(=O)N1CCN(C(=O)C(NC(=O)c2cccc(Cl)c2)S(=O)(=O)c2ccccc2)CC1 (centres undefined) |
| i | C=CCn1c(=O)c2ccccc2n(Cc2nc(-c3ccc(Br)cc3)no2)c1=O |
| i | O=C(Cn1cnc2ccccc21)NCCNc1ccc(Nc2cccnc2)nn1 |
| i | Cc1cc2ccccc2n1CCNC(=O)c1cnn2c1OCCC2 |

An excerpt, so the mix of outcomes need not match the whole.
